# PABP FP inh – blocks human PABP binding to poly(A) RNA; P11940; fluorescence polarization; inhibition, % at 35 µM; 290,000 tested, 1% active;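 active = 50% or more with normal probe brightness, or confirmed in later tests; inconclusive = above 50% with abnormal brightness, or retests that disagree; inactive = below 50% or failed in later tests; about a fifth of its hits are not listed in these tables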;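 note: calls also rest on retests at 20 µM and on dose response follow-up; controls were probe without protein and protein plus probe with vehicle; some compounds called inactive have numbers as strong as hits; many hits fall short of the cut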
# Target sequence (P11940 whole entry, looked up): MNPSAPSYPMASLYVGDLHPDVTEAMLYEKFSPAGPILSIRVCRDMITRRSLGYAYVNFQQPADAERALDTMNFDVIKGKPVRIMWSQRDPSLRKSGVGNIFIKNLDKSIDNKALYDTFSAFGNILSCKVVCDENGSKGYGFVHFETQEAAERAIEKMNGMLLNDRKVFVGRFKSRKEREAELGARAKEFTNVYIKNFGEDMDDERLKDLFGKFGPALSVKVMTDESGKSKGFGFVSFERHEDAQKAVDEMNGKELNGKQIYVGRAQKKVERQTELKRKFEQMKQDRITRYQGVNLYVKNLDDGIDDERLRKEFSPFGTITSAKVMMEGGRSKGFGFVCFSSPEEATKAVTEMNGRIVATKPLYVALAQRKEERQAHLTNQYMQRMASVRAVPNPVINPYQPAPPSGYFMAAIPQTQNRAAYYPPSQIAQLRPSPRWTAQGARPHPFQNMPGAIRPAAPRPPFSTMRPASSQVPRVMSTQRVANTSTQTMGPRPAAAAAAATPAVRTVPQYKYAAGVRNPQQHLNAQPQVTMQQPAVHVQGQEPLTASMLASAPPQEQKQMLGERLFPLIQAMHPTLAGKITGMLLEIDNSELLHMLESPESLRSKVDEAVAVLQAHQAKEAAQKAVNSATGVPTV
# eIF4H inh – inhibitors of RNA binding by human eIF4H | Q15056 | eIF4H fluorescence polarization binding assay | inhibition, % at 35 µM | 290,000 tested, 0.94% active | AID 2012;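 active = 50% or more with normal probe brightness, or confirmed in later tests; inconclusive = above 50% with abnormal brightness, or retests that disagree; inactive = below 50% or failed in later tests; about a fifth of its hits are not listed in these tables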;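 note: calls also rest on retests at 20 µM and on dose response follow-up; 0% = protein and probe with vehicle and 100% = probe without protein; strong numbers were not always called active; many hits fall short of the cut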
# Yeast UUG start – yeast start codon fidelity modulation; activity score, % at 18.7 µM; 350,000 tested, 0.13% active; AID 602363; S. cerevisiae UUG-firefly luciferase reporter, luminescence/redox ratio;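 active = replicate mean at a twofold rise or more, about +100% in these data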;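 note: firefly luciferase made from a UUG start codon reports start codon fidelity; reporter light over untreated wells divided by growth signal over untreated wells; some hits fall short of that in this replicate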
# Rce1 inhib – inhibitors of yeast Ras-converting enzyme. Q03530. yeast membranes, quenched prenylated peptide cleavage fluorescence. calls only. 290,000 tested, 0.27% active. AID 2563;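 active = fall in fluorescence gain of 50% or more versus controls, with final raw signal at or below 3038400; inconclusive = same 50% fall but final raw signal above 3038400; inactive = fall in fluorescence gain under 50%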;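 note: plate controls were neutral control wells for no effect and wells lacking membranes for full effect; tested at 10 µM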
# MT1-MMP act inh – blocks activation of human MT1-MMP; HT1080 RFP-PRO-GFP cells, GFP/RFP ratio fluorescence, overnight; percent of plate control window, DMSO zero; GFP/RFP ratio change, % at 20 µM; 360,000 tested, 0.061% active; AID 651647;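 active = GFP/RFP ratio change of at least 30% with cell ATP level not reduced by more than half and red fluorescence within 50% of control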; note: strong numbers were not always called active
#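 Assay system: HT1080 cells carrying an RFP-PRO-GFP reporter | Dosing: Single dose of 20 µM compound, 1% DMSO final | Incubation: Cells overnight before dosing, compound overnight, 37 °C, 5% CO2 | Evaluation: GFP/RFP fluorescence ratio | Control set: DMSO and RFP-L50D-GFP cell wells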
# Env fusion inh – inhibitors of HIV Env-mediated cell fusion | inhibition, % at 12.3 µM | HeLa-JRFL Env/CEM21 cell fusion, luciferase | AID 651610 | 360,000 tested, 1.1% active;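 active = mean replicate inhibition score of at least 50 and every replicate individually at or above 50; inconclusive = only one of the two criteria met; inactive = mean below 50 and not all replicates reaching 50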;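 note: 0% = plate neutral controls and 100% = maraviroc near 300 nM; one replicate is shown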
# CSC inhib – cancer stem cell inhibition. 300,000 tested, 1.1% active. inhibition, % at 7.5 µM. cancer stem cell-like cells viability, luminescence. AID 2717;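 active = mean at 75% or more and at least half the replicates too; inconclusive = mean and replicates disagree; tested in HMLE shEcad cells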;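 note: 0% = median of negative and 100% = median of positive control wells; the first replicate is given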
# eIF4H inh retest – further read-out of eIF4H inh, marked with its call; inhibition, %; compound at 20 µM; confirmation average;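 mean of two retest wells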
# PABP FP inh retest – second read-out of PABP FP inh, no call of its own (marks repeat the call); inhibition, %; compound at 20 µM; confirmation repeats;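 mean of two retest wells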
# MT1-MMP act inh RFP – second read-out of MT1-MMP act inh, no call of its own (marks repeat the call); RFP signal change, %; measured here: RFP expression control read;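 0 = vehicle wells; hits needed this value within 50% of zero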
# * hit, by the source's call; i = inactive; ? = inconclusive; . = no result given.
SMILES,PABP FP inh,eIF4H inh,Yeast UUG start,Rce1 inhib,MT1-MMP act inh,MT1-MMP act inh RFP,Env fusion inh,CSC inhib,others
CN1CCN(CC(=O)O)CC1,20.0,-8.4,-6.9,.,-0.8,3.0,-43.3,-0.2,
CC1CC(C)(C)N(C(=O)CSc2ccc(-c3ccc(F)cc3)nn2)c2ccccc21 (stereo unspecified),-6.2,-2.3,-3.9,i,-4.4,-11.9,.,50.3,
CC(=O)Nc1ccc(C(=O)NC2CCCC2)cc1,3.5,3.5,-3.6,.,-3.4,6.6,-21.4,1.5,
NS(=O)(=O)c1ccc(NC(=O)CCC(=O)O)cc1,.,.,-18.3,.,2.9,4.7,2.5,.,
CCN(CC)C(=O)Cc1c(OC)ccc2cc(Br)ccc12,-7.3,4.9,-22.4,i,-4.1,-3.0,11.8,-15.8,
COc1ccc(C(C(=O)OC(C)CN(C)C)c2ccccc2)cc1 (stereo unspecified),-4.6,-5.5,-11.3,i,-2.9,-2.4,.,10.9,
COc1ccccc1N(Cc1cc2ccc(C)cc2[nH]c1=O)C(C)=O,1.7,-4.9,4.3,i,-0.8,0.1,5.5,-5.5,
Cc1ccc(/C=C2/NC(=O)[C@H](C)NC2=O)cc1,5.6,12.6,-15.6,i,-2.2,1.1,-6.9,.,
S=c1[nH]nc(-c2cccs2)n1/N=C/c1c(Cl)cccc1Cl,0.1,-0.1,.,i,-1.9,0.7,-20.5,8.1,
O=C(Nc1ccc(N2CCN(C(=O)c3cccs3)CC2)cc1)c1ccccc1Cl,-6.7,-9.2,-12.7,i,-3.7,-2.1,-8.5,22.2,
O=C(c1cccnc1)N(Cc1ccccc1)C1(C(=O)Nc2ccccc2)CCCCC1,1.4,-2.7,-19.3,i,1.6,3.7,.,-8.8,
COCCCNC(=O)[C@H](Cc1ccccc1)NC(=O)CC[C@H]1O[C@@H](n2ccc(=O)[nH]c2=O)[C@H](O)[C@@H]1O,.,.,-10.1,.,3.6,4.3,1.0,.,
CN1CCN(/C(=N\S(=O)(=O)c2ccc(F)cc2)c2ccccc2)CC1,-4.8,-8.3,-27.3,.,1.2,-1.1,.,.,
Cc1ccc(CNC(=O)CCS(=O)(=O)c2ccc(Br)cc2)cc1,10.7,87.7,.,i,-3.2,2.8,-3.6,.,eIF4H inh retest=-6.4;PABP FP inh retest=6.4
CCO[C@H]1OC(C(=O)NCc2nc3ccccc3[nH]2)=C[C@@H](C2CC2)[C@@H]1CCCO,-1.6,-1.9,-6.7,i,3.5,-7.3,-115.3,58.6,
N#Cc1cccnc1Nc1ccc(Cl)cc1,1.7,-0.3,-1.3,i,-5.6,-3.0,-33.6,-4.5,
COc1cc(C2(c3ccc(O)c(OC)c3)C(=O)Nc3c(C)cc(Br)cc32)ccc1O,.,.,1.0,i,4.8,4.4,1.2,16.1,
Cc1ccc(-c2cc(C(=O)Nc3cc(C)ccc3O)no2)cc1,-16.6,-3.9,-18.8,i,4.5,-1.2,-29.5,14.9,
COc1ccc(C(=O)CSc2cc(C)nc(SCC(=O)c3ccc(C)cc3)n2)cc1,-22.1,1.0,-14.4,i,-3.5,-18.1,.,-1.2,
CCN1C(=O)c2cccc3c(Cl)ccc(c23)C1=O,-2.0,2.4,.,i,-8.4,1.7,-8.6,-16.1,
Cn1cc(CCNC(=O)c2ccc3nc(Cc4ccccc4F)oc3c2)cn1,3.3,-10.8,-11.1,i,0.4,2.5,-80.9,-0.5,
CCCCN(C(=O)C1CCN(C(=O)c2ccccc2C)CC1)c1c(N)n(CC(C)C)c(=O)[nH]c1=O,.,.,-7.7,.,-3.9,1.8,10.3,.,
COc1ccc2nc(C)cc(Sc3nc4ccccc4s3)c2c1,1.1,-6.6,-21.3,i,3.3,-20.1,58.1*,58.6,
COc1cc(OC)c(OC)cc1CNc1nnnn1C,0.6,0.1,-16.0,i,4.1,2.9,-5.6,-7.4,
CCc1ccc(-c2ccc3nnc(SC)n3n2)cc1,1.5,-10.0,-10.5,i,7.3,3.2,4.1,-4.3,
CCCCC(=O)N1CCN(c2nc(-c3ccc(F)cc3)cs2)CC1,-1.2,-7.9,-10.2,i,-2.7,-2.7,-15.7,.,
CC(=O)Nc1nc(NC(=O)C(Cl)(Cl)Cl)n(-c2ccccc2)n1,-1.4,3.4,.,i,-2.1,-0.5,0.4,-14.9,
O=C(Cn1cc([N+](=O)[O-])cn1)Nc1ccn(Cc2c(F)c(F)c(F)c(F)c2F)n1,4.1,-3.3,-12.3,i,1.8,4.5,.,2.0,
COc1ccc(NC2CCCN(C(=O)c3ccc(CSC)o3)C2)cc1OC (stereo unspecified),0.1,-7.4,-7.8,i,1.9,1.5,26.0,-4.0,
Cc1ccc(F)cc1NC(=O)Cc1nn(C)c(=O)c2ccccc12,-6.2,12.1,.,i,-3.9,-22.8,.,-3.3,

# Quoted from the listing (two entries):
SMILES,PABP FP inh,eIF4H inh,Yeast UUG start,Rce1 inhib,MT1-MMP act inh,MT1-MMP act inh RFP,Env fusion inh,CSC inhib,others
N#Cc1cccnc1Nc1ccc(Cl)cc1,1.7,-0.3,-1.3,i,-5.6,-3.0,-33.6,-4.5,
COc1cc(C2(c3ccc(O)c(OC)c3)C(=O)Nc3c(C)cc(Br)cc32)ccc1O,.,.,1.0,i,4.8,4.4,1.2,16.1,

# Additional entries:
SMILES,PABP FP inh,eIF4H inh,Yeast UUG start,Rce1 inhib,MT1-MMP act inh,MT1-MMP act inh RFP,Env fusion inh,CSC inhib,others
O=C(COC(=O)c1ccc2c(c1)OCCO2)Nc1cc(Cl)ccc1Cl,-8.3,5.5,-13.3,i,0.7,5.9,-36.1,-4.5,
Cc1ccc(NC(=O)C(c2ccccc2)C2CCCC2)cc1 (stereo unspecified),-6.5,4.7,-20.1,i,-8.6,-7.9,19.1,.,
COc1cc(C(=O)NCc2ccc(C(=O)NCC(OC)OC)cc2)cc(OC)c1OC,-4.3,-10.3,.,i,5.1,1.8,-10.8,-3.9,
COc1ccccc1NC(=S)NNC(=O)c1ccccc1Br,-0.5,4.9,.,i,-4.0,-0.2,-19.3,14.4,
Cc1ccccc1CCNC(=O)Cn1nc(C)c2c(C)n(-c3ccccc3)nc2c1=O,-10.7,-6.8,4.8,i,2.6,-0.7,9.2,-7.6,
CC(C)[C@H](NC(=O)N1CCn2c1nc1ccccc12)C(=O)NCc1ccc(F)cc1,-2.7,-8.1,-13.3,i,3.9,-4.9,22.8,6.8,
O=C(CCCOc1ccccc1)N1CCN(S(=O)(=O)c2cccs2)CC1,-4.9,-3.6,.,i,1.3,-1.3,.,-6.5,
CCc1c(C)nc(SCC(=O)Nc2nc(-c3ccc(OC)cc3)cs2)[nH]c1=O,-0.6,2.4,.,i,1.2,0.7,-1.7,38.9,
Cc1cccc(/C=N\Nc2nnc(-c3ccccc3)c(=O)[nH]2)c1,-5.0,29.7,.,i,-5.7,-3.1,.,-9.0,
COC(=O)CC1COc2ccccc2N1C(=O)c1ccc(Cl)cc1 (stereo unspecified),2.7,5.2,-3.0,i,6.8,7.9,19.5,-11.1,
CN(C)S(=O)(=O)c1ccc(Oc2ccccc2)cc1,-11.3,-6.2,.,i,1.5,-1.3,-22.3,-1.7,
CCOC(=O)Cc1cc(=O)n2[nH]c(-c3ccccc3)cc2n1,5.6,2.6,-5.8,.,1.1,5.1,-4.1,-16.8,
C=CCNc1nc(Nc2ccc(OC)cc2)nc(OC)n1,-3.8,-0.6,-2.0,i,1.2,-1.7,-59.1,-1.8,
CCOC(=O)c1c(C)[nH]c(C)c1S(=O)(=O)NCC1CCN(Cc2ccc(C)cc2)CC1,-6.8,-1.5,.,i,-1.7,-0.5,6.0,-15.9,
N#Cc1cn(-c2ccccc2)nc1C(=O)c1ccccc1,-0.8,0.2,-18.8,i,-3.6,0.6,.,19.1,
COc1ccc(C(=O)NC(C)CCc2ccccc2)cc1 (stereo unspecified),-8.8,3.5,-15.2,i,1.3,1.8,6.4,5.0,
COc1ccc(NC(=O)c2ccco2)c(OC)c1,-0.6,-3.5,-14.4,i,7.2,9.9,.,-10.6,
O=C(c1c(F)cccc1Cl)N1CCN(S(=O)(=O)c2ccc3c(c2)OCCCO3)CC1,7.2,-2.5,3.7,i,0.7,-3.7,-15.3,-3.7,
CCOC(=O)c1ccc(-n2c(CN(CC)CC)nc3ccc([N+](=O)[O-])cc3c2=O)cc1,-6.0,-3.1,.,i,-3.4,-1.6,8.6,6.5,
COc1ccc(NC(=O)CC2Oc3ccccc3NC2=O)cc1 (stereo unspecified),-0.5,3.0,0.5,i,-2.4,2.9,-5.4,-17.1,
COc1ccc2nc(N(CCN(C)C)C(=O)c3ccc4ncsc4c3)sc2c1,.,.,-26.8,.,-2.7,6.8,-34.9,.,
O=C(N/N=C/c1ccc[nH]1)c1ccccc1[N+](=O)[O-],6.1,0.9,.,i,1.7,2.7,8.2,-29.1,
Cc1nc2ccc(S(=O)(=O)NC(C(=O)N3CCCC3)C(C)C)cc2s1 (stereo unspecified),-1.5,-4.3,2.9,i,-0.3,6.8,-23.0,.,
Cc1ccc(-c2cc(C(=O)N/N=C/c3ccccc3)n[nH]2)o1,-0.4,6.4,2.5,.,0.6,0.9,4.6,-4.2,
N/C(=N\OC(=O)c1ccc(Cl)c([N+](=O)[O-])c1)c1ccccc1,8.9,-2.5,-9.2,i,1.6,-1.5,-9.8,28.4,
Cc1ccc2nc(NC(=O)c3ccc(Cn4cc(Cl)cn4)o3)sc2c1,3.1,5.0,-25.9,i,5.7,-8.2,2.4,-13.6,
C=CCN(c1ccccc1OC)S(=O)(=O)c1ccc(Cl)c(C(=O)NCc2ccco2)c1,.,.,12.6,.,-0.9,-5.5,6.9,.,
CSc1nnc(-c2ccccc2N=Cc2c(C)[nH]n(-c3ccccc3)c2=O)c(=O)[nH]1,8.0,-8.5,-1.4,i,2.2,-0.3,.,-7.0,
CCOc1cccc(-c2nnc3sc(COc4ccc(Cl)cc4)nn23)c1,-5.3,3.4,1.4,i,-3.6,-0.9,.,0.4,
COc1ccccc1CCc1nnc(CCC(=O)NC(C)Cc2ccsc2)o1 (stereo unspecified),2.0,-5.6,.,i,-2.0,0.7,-15.6,-8.3,
c1cncc(N=c2scc(-c3cccc4ccccc34)n2CCCn2ccnc2)c1,-6.7,-6.4,.,i,-3.4,-1.2,7.6,0.3,
N#Cc1c(NC(=O)C2CCCO2)sc2c1CCCCCC2 (stereo unspecified),-1.2,-3.5,-20.5,i,2.3,2.4,.,-7.3,
COc1ccc(C2c3cc(OC)c(OC)cc3CCN2S(C)(=O)=O)cc1OC (stereo unspecified),?,?,.,i,-2.5,3.5,12.8,.,
N#CCCN(Cc1cccnc1)C(=O)Nc1ccccc1,-10.1,-5.8,-8.2,i,-2.3,1.9,-7.8,2.2,
CNC(=O)COC(=O)c1cccc(S(=O)(=O)N2CCN(c3ccc(F)cc3)CC2)c1,8.6,1.5,-9.0,i,7.5,-0.4,-11.8,-34.6,
COc1cc(OC)c2c3c(c(C4CCCCC4)nc2c1)CCCC3,.,.,-19.8,.,6.1,7.2,-16.9,.,
C=CCNC(=S)Nc1ccc(Cl)cc1,-8.7,-2.7,-11.5,i,2.9,-1.8,-12.3,-4.9,
Cc1cccc(CN2CCc3c(OCC(=O)NCc4ccco4)cccc3C2=O)c1,-10.6,2.5,.,i,1.3,0.5,-8.2,14.1,
Cc1ccc(S(=O)(=O)N2CCC3(CC2)OCCO3)cc1,2.0,-6.2,-31.1,i,3.5,6.9,16.1,-10.4,
COc1cccc(CNCCNC(=O)c2nonc2N)c1,2.8,2.3,-14.2,i,-0.5,-1.3,.,-8.1,

# Screening data (PubChem BioAssay)
